NPYLR7 ag – agonists of mosquito NPYLR7 receptor, primary screen, cell-based, Aedes aegypti, calcium fluorescence, mosquito biting behavior. Aedes aegypti neuropeptide Y-like receptor 7 (NPYLR7). HEK293T NPYLR7/Galpha15, GCaMP6s calcium fluorescence. activation, % at 10 µM. actives 0.15% (n = 270,000). AID 1259423, 2018; in the data active = activation above about 40%;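 note: 0% = vehicle and 100% = reference agonist at the receptor; some compounds past the cut are filed as inactive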
NPYLR7 ag max-min – second read-out of NPYLR7 ag, no call of its own (marks repeat the call); activation, %; measured here: Max-Min RFU normalised activation; some inactives read as strong as hits;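 span of the calcium signal over five minutes; 0% = vehicle and 100% = native peptide agonist; compound fluorescence can raise it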
The depositor's hits bear a star.

SMILES	NPYLR7 ag	NPYLR7 ag max-min
Cc1nc2scc(C)n2c(=O)c1NC(=O)c1ccccc1	5	-2
N#Cc1ccc(NC(=O)N2CCC3(CC2)C(=O)N(CC(=O)NCc2ccc(F)cc2)CN3c2ccccc2)cc1	19	23
CC(=O)OC(C)(C)[C@@H]1Cc2cc3ccc(=O)oc3cc2O1	-9	-13
O=C(Cc1cccc(F)c1F)N1C[C@H]2C[C@H](C1)[C@@H]1CCCC(=O)N1C2	1	-1
CCOc1ccc(-c2nnc3n(C)c4c(=O)n(C)c(=O)n(C)c4n23)cc1	-3	-4
COc1ccc(-n2c(SCC(=O)NCC3CCCO3)nc3c(c2=O)SCC3)cc1OC (stereo not given)	-6	-7
Clc1cccc(Cl)c1COc1ccccn1	36	26
Cc1c(C(C)NC(=O)c2cccc(N3CCOCC3)c2)cnn1-c1cccc2ccccc12 (stereo not given)	-4	-6
COCCNC(=O)Cn1c(CO)cnc1SCc1cccc(C(F)(F)F)c1	7	3
NC(=O)Cn1nnc2sc3c(c2c1=O)CCCC3	0	-4
Cc1cc(C)nc(SCCn2c(N3CCc4ccccc4C3)nc3c2c(=O)n(C)c(=O)n3C)n1	0	6
O=C(NC1CC2CCC(C1)N2Cc1ccc2c(c1)OCO2)c1cccs1 (stereo not given)	1	8
Cc1cnc(C)c(-c2ccccc2CO)n1	2	-1
C#CCOCC(O)CN(Cc1ccco1)Cc1c(-c2ccc(F)cc2)noc1N1CCOCC1 (stereo not given)	-4	0
N#CC1C(=N)SC(=N)C(C#N)C1c1cccc(Cl)c1 (stereo not given)	2	1
O=C(CSc1nnc2n1CCCCC2)N1N=C(c2ccco2)CC1c1ccco1 (stereo not given)	6	7
CC(C)C1CN(C(=O)c2cc(-c3ccccc3)no2)CCCN1CC1CC1 (stereo not given)	-3	2
CCOc1ccc2c(c1)-c1c(sn(-c3ccc(S(=O)(=O)Nc4nccc(C)n4)cc3)c1=S)C(C)(C)N2	0	-2
COCC(=O)N1CCN(Cc2ccc(-c3noc(-c4cccs4)n3)cc2)CC1	-8	-9
CC(C)NC(=O)Cn1nc(-c2ccco2)c2sc(N3CCCCC3)nc2c1=O	-3	-5
O=[N+]([O-])c1cccc(-c2ccc3nnc(SCc4ccccc4)n3n2)c1	-11	-4
FC(F)(F)c1nnc2ccc(N(Cc3ccccc3)C3CC3)nn12	13	10
CCOC(=O)C1=C(C)NC2=C(C(=O)CC(c3ccccc3)C2)C1c1ccc(OC(C)=O)c(OC)c1 (stereo not given)	-18	-22
CCCCc1noc(C(C)N2CCN(Cc3nc(C)c(C)o3)CC2)n1 (stereo not given)	0	7
Cc1ncc(-c2c(-c3ccccc3)ncn2Cc2ccc3c(c2)OCO3)[nH]1	25	6
CCOC(=O)c1ccc2c(c1)nc(SCc1ccc(Cl)cc1)n2Cc1ccccn1	8	4
COc1ccc(F)c(CN2CCCC3(CCN(C(=O)c4ccccc4)C3)C2=O)c1 (stereo not given)	5	4
COc1ccc(-c2cc(N)n(-c3ccc(C(=O)Nc4cc(OC)ccc4OC)cc3)n2)cc1	-7	-10
CCN(CC)S(=O)(=O)c1ccc(OC)c(N2CCN(S(=O)(=O)c3ccc(C(C)(C)CC)cc3)CC2)c1	28	20
Cc1c(C(=O)N2CCc3ccccc3C2)cnc2c(-c3ccc4c(c3)OCO4)cnn12	11	19

Some of the entries above, reformatted.
canonical_smiles,NPYLR7 ag,NPYLR7 ag max-min
CC(C)C1CN(C(=O)c2cc(-c3ccccc3)no2)CCCN1CC1CC1 (stereo not given),-3,2
CCOc1ccc2c(c1)-c1c(sn(-c3ccc(S(=O)(=O)Nc4nccc(C)n4)cc3)c1=S)C(C)(C)N2,0,-2
COCC(=O)N1CCN(Cc2ccc(-c3noc(-c4cccs4)n3)cc2)CC1,-8,-9
CC(C)NC(=O)Cn1nc(-c2ccco2)c2sc(N3CCCCC3)nc2c1=O,-3,-5
O=[N+]([O-])c1cccc(-c2ccc3nnc(SCc4ccccc4)n3n2)c1,-11,-4
FC(F)(F)c1nnc2ccc(N(Cc3ccccc3)C3CC3)nn12,13,10
CCOC(=O)C1=C(C)NC2=C(C(=O)CC(c3ccccc3)C2)C1c1ccc(OC(C)=O)c(OC)c1 (stereo not given),-18,-22
CCCCc1noc(C(C)N2CCN(Cc3nc(C)c(C)o3)CC2)n1 (stereo not given),0,7
Cc1ncc(-c2c(-c3ccccc3)ncn2Cc2ccc3c(c2)OCO3)[nH]1,25,6
CCOC(=O)c1ccc2c(c1)nc(SCc1ccc(Cl)cc1)n2Cc1ccccn1,8,4
COc1ccc(F)c(CN2CCCC3(CCN(C(=O)c4ccccc4)C3)C2=O)c1 (stereo not given),5,4
COc1ccc(-c2cc(N)n(-c3ccc(C(=O)Nc4cc(OC)ccc4OC)cc3)n2)cc1,-7,-10
CCN(CC)S(=O)(=O)c1ccc(OC)c(N2CCN(S(=O)(=O)c3ccc(C(C)(C)CC)cc3)CC2)c1,28,20
Cc1c(C(=O)N2CCc3ccccc3C2)cnc2c(-c3ccc4c(c3)OCO4)cnn12,11,19

(more compounds)
SMILES	NPYLR7 ag	NPYLR7 ag max-min
C=CCn1c(N2CCN(c3ccc(OC)cc3)CC2)nc2c1c(=O)[nH]c(=O)n2C	-6	3
COc1cc(C)ccc1S(=O)(=O)Nc1ccccc1C	-3	-3
CS(=O)(=O)c1cccc(C(=O)N(CCn2cccn2)c2nc3c(F)cccc3s2)c1	-15	-19
O=C(N[C@@H]1CCCCC1NC(=O)C1CCCN(C(=O)COCc2ccccc2)C1)c1ccc(F)cc1 (stereo not given in full)	1	7
CCn1cc(NC(=O)NCc2ccc3[nH]c(C)cc3c2)c2ccccc21	9	4
O=C(c1ccco1)N1CCC1c1ccc(F)cc1 (stereo not given)	1	-2
Cc1ccccc1-c1noc(-c2cccc([N+](=O)[O-])c2)n1	-6	-9
COc1ccc(Cn2c(C(=O)NCCc3ccccn3)cc3ccsc32)cc1	11	18
CC(=O)Nc1ccc(SCCCC(=O)NCC2CCCO2)nn1 (stereo not given)	-3	-3
O=C(O)c1cscc1Sc1ccc(Cl)cc1	-1	-3
CC(C)(C)c1ccc(C(=O)N2CCC(c3nc(C4CC4)n[nH]3)CC2)cc1	4	0
O=C(NCc1ccc(-c2ncc(-c3ccc(F)cc3)[nH]2)cc1)c1ccc(F)cc1Cl	2	2
C=CCN(CC=C)C(=O)CN1CCCC(C(N)=O)C1 (stereo not given)	2	-1
COCCc1noc(C2CCCN(C(=O)CN3C(=O)CNC3=O)C2)n1 (stereo not given)	18	10
COc1cc(C(C2Sc3ncnn3C2=O)N2CCN(C)CC2)cc(OC)c1OC (stereo not given)	8	8
CC(C)Sc1ncccc1C(=O)N1CCC(C(O)c2ccccc2)CC1 (stereo not given)	4	1
O=C(O)C1CC(=O)N(Cc2cnc3ccccc3c2)C1 (stereo not given)	-2	-11
CCCNC(=O)CN(C)c1cnn(-c2ccc(C(=O)O)cc2)c(=O)c1Cl	7	4
CSc1ccccc1NC(=O)NC1CCCN(C2CCCCCC2)C1 (stereo not given)	15	7
Fc1cccc(C2=NOC(CNCc3ccc(F)cc3F)C2)c1 (stereo not given)	0	-4
CCOC(=O)C(C)Sc1n[nH]c(=O)[nH]c1=O (stereo not given)	-3	-5
COc1ccc(OC)c(CNC(=O)CC2C(=O)NCCN2Cc2cccc(F)c2F)c1 (stereo not given)	15	11
CN1C(=O)NC(c2ccc(C(C)(C)C)cc2)C2=C1CN(CC(=O)NCCCN1CCCC1=O)C2=O (stereo not given)	1	12
CN(CC12CC3CC(CC(C3)C1)C2)C(=O)c1ccc2nc[nH]c2c1	-13	-10
Cc1cc(C(=O)N2CCCn3ncnc32)cc(S(=O)(=O)N(C)C)c1C	11	6
CCCc1cnc2c(c1SCc1cc(OC)cc(OC)c1)c(=O)n(C)c(=O)n2C	15	14
Cc1ccccc1-n1c(SCCCC(=O)N2CCN(C(=O)c3cccc(C(F)(F)F)c3)C(C)C2)nnc1-c1ccccc1 (stereo not given)	-4	0
COC(=O)NNC(=O)Nc1ccc(F)cc1F	7	13
O=C(NCCC1=CCCCC1)C1CC12CCN(Cc1cc3ccccc3s1)CC2 (stereo not given)	16	8
Cc1cc(=O)[nH]c(-n2nc(C3CC3)cc2NC(=O)c2ccccc2Cl)n1	1	2
Cc1ccc(Nc2nc(Nc3ccc(F)cc3)nc3nccnc23)cc1	3	4
CCOC(=O)C1CCN(S(=O)(=O)NCc2ccccc2)CC1	5	2
C=CCn1nc(C)c(-c2c(-c3ccccc3)ncn2CCS(C)(=O)=O)c1C	-7	-9
COc1ccc(/C=C\C(=O)NCc2cc(-c3cc4ccccc4o3)on2)cc1OC	2	2
Cn1ncc(NC2CCc3ccccc3C2)c(Cl)c1=O (stereo not given)	-21	-23
CC(c1cccs1)N(C)CN1C(=O)C(=O)c2c(Cl)ccc(F)c21 (stereo not given)	3	2
CC(CCc1ccco1)NC(=O)c1cc(Cn2ccc3ccccc32)[nH]n1 (stereo not given)	22	13
CCC(C)C(=O)N(CC(=O)NCC(=O)Nc1cccc(C)c1)Cc1ccccc1 (stereo not given)	3	6
CCOC(=O)N1CCN(C(c2ccccc2)C2Sc3nc(-c4ccco4)nn3C2=O)CC1 (stereo not given)	-3	-5
Cc1cc(-c2cccc(OC(F)(F)F)c2)nc(N)n1	-7	-11
C=CCn1c(SCc2ccccc2)nc(O)cc1=O	12	2
Cc1cccc(C(=O)N=Nc2c(O)[nH]c3c(C)cccc23)c1	10	-3
CC(C)c1ccc(-n2cc(O)c(C(=O)N(C)C3CCN(C(=O)OC(C)(C)C)CC3)n2)cc1	10	8
CCCCCCc1ccc(C(=O)N(CC(=O)N(Cc2ccccc2)Cc2sccc2C)CC2CCCO2)cc1 (stereo not given)	6	15
CCNS(=O)(=O)CCNC(=O)C(CC)c1cccc(C(F)(F)F)c1 (stereo not given)	5	7

Record cards (already shown). Order of screens: NPYLR7 ag, NPYLR7 ag max-min
O=C(CSc1nnc2n1CCCCC2)N1N=C(c2ccco2)CC1c1ccco1 (stereo not given) is listed as 6, 7
O=C(Cc1cccc(F)c1F)N1C[C@H]2C[C@H](C1)[C@@H]1CCCC(=O)N1C2 is listed as 1, -1

(cont.)
SMILES	NPYLR7 ag	NPYLR7 ag max-min
COc1ccccc1NC(=S)N1CC(=O)N2CCc3ccc(F)cc3C2C1 (stereo not given)	27	14
COc1ccc(C(=O)NC2CCCc3c2cnn3-c2ccc(C)c(C)c2)c(OC)c1OC (stereo not given)	1	-3
Cc1cc(C)nc(NS(=O)(=O)c2ccc(NC(=O)CN3C(=O)/C(=C/c4ccccc4)SC3=S)cc2)n1	-8	-14
Cc1cnn(C)c1NC(=O)c1cccc(CN2CC[C@@H]3CCCC[C@H]3C2)c1	3	0
COc1cccnc1NC(=O)C1Cc2ccccc2O1 (stereo not given)	-3	-5
Cc1ccccc1-n1cc(CNc2ccc(-c3nccn3C)nn2)cn1	5	1
CC(=O)c1cc(C(=O)N2CCC(CCC(=O)NCc3cccnc3)CC2)cs1	2	-1
COc1cccc(C2=NN(C(=O)CN3CCCCC3C)C(c3ccccc3F)C2)c1 (stereo not given)	-2	0
Cc1nnsc1C(=O)N1CCN(C(c2ccccc2)c2ccccc2)CC1	2	0
COc1cc(=O)n(-c2ccccc2C)nc1C(=O)Nc1cccc(C)c1C	2	2
CC(C)NC(=O)C1(C)CCN1C(=O)c1ccc(F)c(Cl)c1 (stereo not given)	-3	-4
O=C(NCCN1CCc2ccccc2C1)N1CCN(c2nccs2)CC1	16	8
CCN1C(=CC=Cc2sc3ccccc3[n+]2CC)Sc2ccccc21	-12	-25
O=C(c1cccnc1Oc1ccccc1)N1CCN(c2ccccn2)CC1	-16	-24
CC(=O)NCc1ccc(-c2nc(-c3ccccn3)no2)s1	10	8
O=S(=O)(c1cccs1)N1CCC(CO)(Cc2cccc(F)c2)CC1	9	1
Cc1cc(=O)[nH]c(-n2nc(C)cc2NC(=O)c2ccc(S(=O)(=O)N(C)C)cc2)n1	9	1
CCOc1ccc(N2C(=O)CSC2c2ccccc2NC(=O)CCl)cc1 (stereo not given)	16	14
CCOC(=O)c1c(NC(=O)COC(=O)C(CC(C)C)NC(N)=O)sc(C)c1CC (stereo not given)	3	9
O=C(CN1CCc2sccc2C1c1cccc(F)c1)N1CCCN(S(=O)(=O)c2ccc(Cl)c([N+](=O)[O-])c2)CC1 (stereo not given)	-8	-12
O=C(NN=C1CC2CC=CC12)c1cc(-c2ccccn2)nc2ccccc12 (stereo not given)	0	3
COc1ccc(N2CN(C(=O)CN(CC(C)C)C(=O)c3ccccc3F)CC2=O)cc1	19	24
O=C(CSc1nc2ccccc2o1)c1c[nH]c2ccccc12	0	7
CC(C)C(C(=O)N1CCN(C)CC1)N1C(=O)c2ccccc2C1=O (stereo not given)	1	-3
O=C1N(c2ccccc2)C[C@@H]2C[C@@H](c3cn[nH]c3-c3ccccc3)N3CCC[C@@]123	2	-3
COc1ccc(C(C)=O)cc1-c1cccc(C(F)(F)F)c1	-2	-6
O=S(=O)(c1cc(C(F)(F)F)cc(C(F)(F)F)c1)N1CCNCC1	1	-3
CC1Cc2cc(-c3cc(CC(=O)NCc4ccco4)no3)ccc2O1 (stereo not given)	10	11
O=C(O)C1C2C=CC3(CN(c4ccccc4Br)C(=O)C13)O2 (stereo not given)	8	5
O=C(Nc1nc(-c2ccc(Oc3ccccc3)cc2)cs1)c1cccc(C(F)(F)F)c1	-5	-12
COc1ccc(-c2nc3ccc(C)cn3c2NC(=O)c2cccc(Br)c2)cc1	-4	2
CCO[C@H]1COC[C@@H]1NC(=O)c1cc(CN2CCCC2)c(CC)o1	8	-3
Cc1ccc(-n2c(SCC(=O)NCc3ccc(F)cc3)nc3c(c2=O)SCC3)cc1	-5	-6
Cc1nc(C(F)(F)F)ccc1C(=O)N1CCC1(C)C(=O)NS(=O)(=O)c1c(C)noc1C (stereo not given)	-1	-1
Cc1nn(-c2ccccc2)c(OC(=O)c2ccccc2)c1S(=O)(=O)c1ccccc1	0	16
C/C(=N/OC(=O)C1CC1(c1ccccc1)c1ccccc1)c1ccccc1 (stereo not given)	7	26

Screening data as filed in PubChem BioAssay.

These rows are one share of the data (hit frequency here may not be typical).
